# Bioassay records deposited in PubChem by several laboratories.
# T cruzi inh – T. cruzi replication inhibition | T. cruzi beta-gal in NIH3T3, luminescence, 90 h | inhibition, % (test concentration not listed) | 300,000 compounds, 1.4% hits;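 active = mean inhibition across valid replicates above about 55%, limit read from the data; inconclusive = mean below that limit but half or more replicates reach it; inactive = mean below it, under half of replicates reach it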;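 note: signal also drops with host cell toxicity which is not excluded here; 0% = plate median of DMSO wells and 100% = zero luminescence signal; higher percent means less beta-gal luminescence so fewer parasites; stock transfer was 50 nL into about 50 µL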
# Beta apoptosis – blocks beta cell apoptosis; protection from apoptosis, % (concentration not given with the values); INS-1E cytokine-induced death, ATP luminescence, 48 h; percent of positive-control rescue, neutral wells zero; 300,000 compounds, 0.8% hits;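 active = all replicates at 75% or more, or half of them and the mean; inconclusive = half reach 75% but not the mean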;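 note: 0% = cytokine-treated negative control wells and 100% = positive control rescue; higher means more ATP so stronger rescue from cytokine killing; wells of about 40 µL received 100 nL stock; the first replicate is given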
# Bfl-1 A1 inh – inhibitors of the anti-apoptotic protein A1, read as caspase activation. 330,000 compounds, 0.066% hits. MEF A1-2A-BIM cells, Caspase-Glo 3/7 luminescence, 3 h; percent of clofoctol response, vehicle zero. caspase activation, % (test concentration not listed);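 active = over half of replicate activation scores above 10%, or exactly half above 10 with the replicate mean above 10; inconclusive = replicate mean below 10 yet half the replicates above 10; inactive = over half of replicates below 10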;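 note: wells of about 30 µL received 50 nL stock; many hits fall short of the cut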
# LANA-H2A inh – blocks KSHV LANA binding to histone H2A/H2B; Q9QR71; cell-free LANA-H2A/H2B peptide, fluorescence polarization; inhibition, % (no concentration beside the values); 320,000 compounds, 0.6% hits; in the data active = inhibition mostly above about 10%, no sharp cut-off; inactive = mostly below about 6.7%;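 note: stock transfer was 7.5 nL into about 10 µL; 0% = median of vehicle wells and 100% = median of positive control wells; one replicate is shown; the record names a cut of 25% in any replicate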
# ALR inh – human ALR oxidase inhibition via reduced H2O2. purified ALR, DTT oxidation, H2O2 HRP-luminol luminescence. inhibition, % (concentration not given with the values). 290,000 compounds, 3.8% hits;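 active = mean and each replicate at 75% or more; inconclusive = only one of the two met; inactive = neither met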;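 note: stock transfer was 7.5 nL into about 7.5 µL; 0% = neutral wells and 100% = wells with inactivated enzyme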
# Target sequence (P55789 whole entry, looked up): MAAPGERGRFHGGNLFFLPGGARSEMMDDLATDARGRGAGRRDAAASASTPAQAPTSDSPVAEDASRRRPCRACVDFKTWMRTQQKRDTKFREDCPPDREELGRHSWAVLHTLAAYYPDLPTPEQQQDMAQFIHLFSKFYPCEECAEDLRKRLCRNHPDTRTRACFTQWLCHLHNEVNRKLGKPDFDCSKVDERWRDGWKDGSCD
# Calb FLC – C. albicans growth modulation with fluconazole; C. albicans CaCi-2 (fluconazole-resistant clinical isolate) + fluconazole, Alamar Blue growth, 48 h; growth inhibition, % (concentration not given with the values); 300,000 compounds, 0.57% hits; AID 1979;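 active = most replicates above 75%; inconclusive = exactly half above 75%; inactive = most below 75%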;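 note: all wells also contain fluconazole at 8 µg/ml as a sub-toxic cotreatment; 0% = median of DMSO wells and 100% = median of geldanamycin control wells; wells of about 8 µL received 7.5 nL stock; the first replicate is given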
# Beta2AR agonist – agonists of human beta-2 adrenergic receptor inducing internalization; response, % (concentration not given with the values); Am2.2-beta2AR cells, FAP receptor internalization, flow cytometry; reference of the scale not given here; 340,000 compounds, 0.43% hits; P07550;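 active = response above a set limit, near 3 SD of response in nonfluorescent compounds, cut at about 42% in these data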;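 note: stock transfer was 100 nL into about 11 µL; a reference agonist was the positive control; negative values mostly stem from fluorescent compounds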
# Target sequence (P07550 whole entry, looked up): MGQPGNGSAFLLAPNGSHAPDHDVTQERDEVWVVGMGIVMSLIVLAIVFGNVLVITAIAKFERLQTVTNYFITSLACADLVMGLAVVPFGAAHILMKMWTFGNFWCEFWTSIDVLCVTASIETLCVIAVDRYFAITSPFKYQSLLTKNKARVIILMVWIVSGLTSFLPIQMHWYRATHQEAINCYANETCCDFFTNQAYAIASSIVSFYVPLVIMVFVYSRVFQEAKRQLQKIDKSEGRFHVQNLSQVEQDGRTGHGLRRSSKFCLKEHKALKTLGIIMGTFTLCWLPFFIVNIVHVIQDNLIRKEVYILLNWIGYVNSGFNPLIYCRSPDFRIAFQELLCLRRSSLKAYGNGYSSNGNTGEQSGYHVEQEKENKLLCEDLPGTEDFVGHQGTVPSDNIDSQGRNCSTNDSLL
# Ecoli rRNA inh – inhibitors of bacterial rRNA selective over humanized ribosomes; 350,000 compounds, 1.6% hits; GFP signal change (wild-type ribosome), % (test concentration not listed); E. coli WT GFP vs humanized-ribosome RFP mutants, fluorescence, 24 h; hits give low values; DMSO median 0, no signal -100; AID 720706;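 active = significant combined selectivity score with lowered wild-type GFP, culture density cut under 30%, mutant RFP and density less affected; inactive = any of these conditions unmet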; note: one replicate is shown; some compounds called inactive have numbers as strong as hits
# Ecoli rRNA inh OD600 – also measured in Ecoli rRNA inh; calls as there; OD600 change, %; measured here: OD600 growth;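 optical density of the mix in the first replicate; 0 = DMSO median and -100 = no signal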
# Ecoli rRNA inh RFP – also measured in Ecoli rRNA inh; calls as there; RFP signal change, %; measured here: RFP humanized mutant strains;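 first replicate; 0 = DMSO median and -100 = no signal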
# * = called active by the depositor; ? = inconclusive; . = no result given. Some of the compounds tested; rates above refer to the full screens.
SMILES,T cruzi inh,Beta apoptosis,Bfl-1 A1 inh,LANA-H2A inh,ALR inh,Calb FLC,Beta2AR agonist,Ecoli rRNA inh,Ecoli rRNA inh OD600,Ecoli rRNA inh RFP
Cc1ccc(S(=O)(=O)N2CCOCC2)cc1NC(=O)COc1ccc(-c2nnco2)cc1,-15,-3,0.1,-1.1,-2,19,-4,-19*,-1.8*,-0.3*
Clc1ccc(OCc2noc(-c3ccsc3)n2)c(Cl)c1,15,7,-0.3,-0.7,-4,-7,-10,12,9,1.4
CC(=O)Nc1ccc(NS(=O)(=O)c2cccc3nonc23)cc1,-14,0,1.0,1.2,-74,-3,7,5,8,-2.5
C=CCNC(=O)c1cc2sccc2n1C,-4,-2,0.3,-4.0,-13,0,-2,7,-1,-5.7
CCN(CC)S(=O)(=O)c1ccc(/C=C/C(=O)OCC(=O)c2c(N)n(C)c(=O)n(C)c2=O)cc1,8,-2,0.9,.,.,-26,0,7,5,1.8
O=C(Cn1nc(-c2ccccc2)c2ccccc2c1=O)Nc1ccc2c(c1)nc1n2CCOC1,4,3,0.7,7.3,1,-2,-11,.,.,.
O=C(Nc1ccc2c(c1)OCO2)c1cccc2c1C(=O)N(C1CCCCC1)C2,27,-7,-0.9,2.2,-4,2,-15,7,10,-0.4
CCOC(=O)C1CCN(C(=O)c2cc(S(=O)(=O)N(C)C)ccc2N2CCCC2)CC1,15,-1,-0.4,-11,-2,-2,2,4,1,1.1
O=S(=O)(NCCc1ccc(Cl)cc1)c1cccs1,4,6,0.5,-2.4,-7,-1,0,2,-2,1.4
Cc1ccc[n+](CC(=O)Nc2ccc(C)c(C)c2)c1,-12,-8,-2.2,4.2,7,5,-3,31,13,3.1
COc1ccccc1/C=N/OCc1ccc(C#N)cc1,3,0,-1.1,-6.8,2,-6,6,-1,0,0.2
Cc1ccc(CSCc2ccc(C(=O)NC3CCCC3)o2)cc1,11,-3,0.1,2.6,9,11,-1,3,12,-8.5
CN(C)S(=O)(=O)c1cccc(NC(=O)COc2ccc(S(=O)(=O)N3CCOCC3)cc2Cl)c1,.,-2,0.4,1.6,3,.,14,19,7,2.0
COc1cc(-c2noc(C)c2C(=O)NCCc2ccccc2)cc(OC)c1OC,.,-4,0.3,-1.6,0,.,2,-3,1,1.5
O=C(OCc1ccccc1F)c1cnc(Cl)c(Cl)c1,28,-1,2.5,1.7,-17,-7,0,1,-9,-2.4
CC(=O)N1CCC(C(=O)N2CCN(S(=O)(=O)c3ccc(F)cc3)CC2)CC1,-1,-4,0.3,1.1,0,4,-1,5,17,-1.5
CCCNS(=O)(=O)c1cccc(C(=O)NC2CCCc3ccccc32)c1 (centres undefined),-5,-5,0.8,3.4,3,-7,6,.,.,.
CCOC(=O)CSc1n[nH]c(=O)n1CCc1ccccc1,2,-3,1.4,1.5,2,1,28,4,20,13
O=C(NC1CC1)C1=C[C@H](c2ccccc2)C[C@H](OCc2ccc(CO)cc2)O1,-12,-3,-3.0,-3.5,-11,22,-7,-1,-9,-3.0
O=C(NN=C1CCCCCC1)c1cc2ccccc2cc1O,-13,6,-0.6,4.3,-2,25,1,17,6,-3.5
CN(Cc1nc2ccccc2[nH]1)Cc1nc(CC2CC2)no1,-1,-1,-0.1,1.9,.,2,2,9,8,-7.1
COc1cc(C(=S)N2CCOCC2)ccc1OC(=O)c1cccc(C)c1,12,0,0.9,0.2,-24,6,-4,-18,-15,-2.9
Cc1cccc(NC(=O)c2cccc(C(=O)Nc3cccc(C)n3)c2)n1,-5,-6,0.3,-2.6,-8,-3,-1,-3,3,0.9
Cc1ccc(-c2nnnn2C2C/C(=N\NC(N)=S)C3OCC2O3)cc1 (centres undefined),12,3,1.4,-2.0,6,-8,6,-1,0,2.2
COCCn1cnc2c1c(=O)n(Cc1ccccc1C#N)c(=O)n2Cc1ccccc1,8,-3,0.8,2.9,.,?,-1,4,8,-0.5
SMILES,T cruzi inh,Beta apoptosis,Bfl-1 A1 inh,LANA-H2A inh,ALR inh,Calb FLC,Beta2AR agonist,Ecoli rRNA inh,Ecoli rRNA inh OD600,Ecoli rRNA inh RFP
O=C(Nc1ccc(Nc2ccccc2)cc1)c1cc([N+](=O)[O-])ccc1Cl,41,16,0.4,1.1,36,9,10,-19,-17,9.1
O=c1[nH]c2ccccc2c(O)c1-c1ccccc1,-15,.,0.3,-0.8,1,2,0,9,1,-3.2
COc1cccc(OCCOc2ccc(/C=C3\C(=N)N4N=C(S(C)(=O)=O)SC4=NC3=O)cc2OC)c1,1,-1,-0.7,-0.4,40,6,7,-7,-4,-1.0
O=C1CCC(C(=O)N2CCCC(C(=O)c3ccc4ccccc4c3)C2)=NN1 (centres undefined),-6,-1,-0.4,-0.3,-9,-1,8,-2,-6,1.9
O=C(/C=C/Nc1ccc(Cc2ccc(N/C=C/C(=O)C(F)(F)F)cc2)cc1)C(F)(F)F,2,-10,1.0,3.4,.,-34,2,.,.,.
CCOC(=O)N1CCN(C(=O)CN(c2cc(C(F)(F)F)ccc2Cl)S(C)(=O)=O)CC1,-7,.,-1.5,2.0,-12,8,6,.,.,.
CSc1c(-c2ccccn2)c(N)nn1C(=O)C1CC1,1,.,0.0,0.0,.,4,2,-24*,-13*,-6.1*
C=CCN1C(=O)C(CC(=O)O)SC1=Nc1ccc(C(=O)O)cc1 (centres undefined),0,-1,-0.4,4.1,-3,15,-3,10,7,2.5
O=C1Nc2ccccc2C(=O)N2[C@H](c3cccc(Br)c3)[C@@H]3C(=O)N(Cc4ccccc4)C(=O)[C@@H]3[C@H]12,-2,-1,0.6,0.3,-9,8,-7,-1,4,2.7
Cc1ccc(C)c2[nH]c(=O)c(CN(Cc3ccco3)C(=O)Nc3ccccc3)cc12,17,5,-0.6,0.5,-2,-3,6,.,.,.
O=C(NCCC1=CCCCC1)C1COc2ccccc2O1 (centres undefined),.,-2,0.7,0.2,-4,.,2,.,.,.
CC1CN(C(=O)CCC(=O)NCCCN2C(C)CCCC2C)c2ccccc2O1 (centres undefined),0,-10,-0.1,5.6,-2,-12,1,8,-4,0.2
CCc1ccc(NC(=O)Nn2cnnc2)cc1,-9,-3,0.6,-3.0,-6,13,-7,3,8,0.9
Cc1nn(C)cc1C(N)=O,-8,-7,0.6,-3.7,.,0,1,.,.,.
COc1cccc(C(C(=O)NC2CCCC2)N(C(=O)c2ccco2)c2ccc(C(C)=O)cc2)c1OC (centres undefined),6,-2,-0.4,1.8,.,-6,-5,4,2,2.4
CC1CCc2sc(C(=O)N(C)CC(=O)Nc3ccc(N4CCOCC4)cc3)cc2C1 (centres undefined),-3,1,0.7,-1.3,23,6,3,-18,-17,-2.4
O=C1OC(/C=C/c2ccccc2)=NC/1=C\c1cccnc1,-12,-5,-5.7,-1.0,47,-14,5,.,.,.
CC1Cc2cc(S(=O)(=O)CCC(=O)NCc3ccco3)ccc2N1C(=O)C1CC1 (centres undefined),0,1,0.8,0.3,24,52,-10,1,7,-1.6
COc1cc2c(cc1NC(=O)C(C)OC(=O)c1ccc(S(=O)(=O)Nc3ccccc3Cl)cc1)oc1ccccc12 (centres undefined),-5,15,1.0,-4.1,-9,7,-1,0,2,1.1
Cc1cccc(Sc2nc(-c3ccccc3)ccc2C#N)c1,20,11,0.1,-0.8,-5,-3,-3,.,.,.
Cc1ccc(NC(=O)CSCc2cc(=O)n3ccsc3n2)c(C)c1,14,-4,-0.4,-2.2,10,-3,0,11,11,-0.3
CCCNC(=O)COC(=O)c1ccc(OCC(=O)Nc2ccccc2OC)c(OC)c1,-10,3,0.7,6.2,-9,-11,17,.,.,.
CC(=O)Nc1ccc(NC(=O)C2CCN(C(=O)c3ccc([N+](=O)[O-])cc3)CC2)cc1,-8,-5,-0.3,4.1,-5,-11,-3,-6,0,-0.4
c1ccc(-c2csc3ncnc(NCCN4CCOCC4)c23)cc1,-18,4,-0.3,1.0,-7,-36,0,.,.,.
COc1ccc(S(=O)(=O)N(C)CC(=O)NCCC2=CCCCC2)cc1,11,2,-1.1,-1.8,-23,-6,-4,.,.,.
SMILES,T cruzi inh,Beta apoptosis,Bfl-1 A1 inh,LANA-H2A inh,ALR inh,Calb FLC,Beta2AR agonist,Ecoli rRNA inh,Ecoli rRNA inh OD600,Ecoli rRNA inh RFP
CC(C)NS(=O)(=O)c1ccc(Oc2ncc(C(F)(F)F)cc2Cl)cc1,10,.,1.8,1.4,-5,0,-8,.,.,.
CC(NS(=O)(=O)c1ccc(Cl)c(Cl)c1)C(=O)OCC(=O)N1CCCCCC1 (centres undefined),.,-4,0.4,5.2,-19,.,-1,-10,-15,2.8
Nc1nc2c(Cl)cc(Cl)cc2s1,-14,-9,0.0,1.2,.,42,3,-3,2,0.2
Cn1cc(Br)c(C(=O)NNC(=O)c2ccc(Cl)cc2)n1,0,3,1.0,-1.4,-1,-1,1,0,2,3.5
CN1C(=O)c2ccc(NC(=O)CSc3ccccc3)cc2C1=O,-12,-2,-0.9,0.1,2,-3,1,15,23,4.9
Cc1onc(-c2ccccc2)c1C(=O)Nc1nc2c(s1)CCCC2,-6,3,-0.2,-3.1,-6,-16,-4,.,.,.
CN1C(=O)NC(c2ccc(O)cc2)C2=C1CN(c1ccc(O)cc1)C2=O (centres undefined),-13,3,0.2,2.8,99*,-11,1,11,19,1.3
COc1ccc(CN2CSC(=S)N(Cc3ccc(OC)cc3)C2)cc1,-27,-7,-0.7,-1.6,-6,-6,-3,.,.,.
O=C(CCSCCc1ccccn1)Nc1ccc(Cl)cn1,2,1,-0.3,-3.5,-4,7,-2,.,.,.
O=C(OCCN=C1NS(=O)(=O)c2ccccc21)C1CC(=O)N(c2ccc3ccccc3c2)C1 (centres undefined),-2,.,0.2,-3.0,-28,-3,-2,14,3,1.0
CC(C)OC(=O)CSc1nnc2c3ccccc3n(C)c2n1,11,6,-0.4,-4.8,3,0,-1,-3,-1,-1.3
CCCc1ccc(-c2ccc(C(=O)O)cc2)nc1,-4,.,-7.7,-8.2,3,19,1,.,.,.
COc1ccc(-n2c(SCC(=O)c3c(N)n(C)c(=O)n(C)c3=O)nc3ccccc32)cc1,.,-6,-1.2,1.6,5,7,-2,.,.,.
CN(C)S(=O)(=O)c1cccc(C(=O)N2CCN(C(=O)C3CCCO3)CC2)c1 (centres undefined),.,-6,0.0,6.9,-5,.,6,5,8,-2.0
O=c1c2ccccc2[nH]c(=S)n1CCCN1CCN(c2ccccc2)CC1,58*,0,0.3,-0.9,70,12,1,0,7,-0.5
O=C(N/N=C/c1ccc(OC(=O)c2ccccc2Br)cc1)c1ccccn1,-9,6,1.3,3.9,-6,36,4,5,12,1.6
CC(C)C(C)(C#N)NC(=O)CSc1nnc(C(F)(F)F)n1C (centres undefined),-5,-5,0.6,-2.0,-11,-8,-20,.,.,.
Cn1cnnc1SCc1ccc(C(=O)N/N=C/c2cccs2)cc1,0,-1,1.7,3.5,-20,10,3,5,7,1.2
